Assay outcomes from PubChem.
Yeast UUG start – alters start codon recognition fidelity in yeast. S. cerevisiae UUG-firefly luciferase reporter, luminescence/redox ratio. activity score, % at 18.7 µM. AID 602363. 350,000 compounds, 0.13% hits;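 active = replicate mean at a twofold rise or more, about +100% in these data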;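 note: firefly luciferase made from a UUG start codon reports start codon fidelity; reporter light over untreated wells divided by growth signal over untreated wells; some hits fall short of that in this replicate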
MT1-MMP act inh – MT1-MMP (human) activation inhibition. HT1080 RFP-PRO-GFP cells, GFP/RFP ratio fluorescence, overnight; percent of plate control window, DMSO zero. GFP/RFP ratio change, % at 20 µM. 360,000 compounds, 0.061% hits;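 active = GFP/RFP ratio change of at least 30% with cell ATP level not reduced by more than half and red fluorescence within 50% of control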; note: strong numbers were not always called active
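Assay system: HT1080 cells carrying an RFP-PRO-GFP reporter | Dosing: Single dose of 20 µM compound, 1% DMSO final | Incubation: Cells overnight before dosing, compound overnight, 37 °C, 5% CO2 | Evaluation: GFP/RFP fluorescence ratio | Control set: DMSO and RFP-L50D-GFP cell wells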
MT1-MMP act inh RFP – recorded beside MT1-MMP act inh, whose call it bears; RFP signal change, %; measured here: RFP expression control read;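 0 = vehicle wells; hits needed this value within 50% of zero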
* hit, by the source's call; & = joins results of further samples.

SMILES	Yeast UUG start	MT1-MMP act inh	MT1-MMP act inh RFP
Cc1cccc(NC(=O)COC(=O)c2cccc(S(=O)(=O)N3CCCCCC3)c2)c1	-9.8	9.0	5.1
COc1ccc(C(NC(=O)C2CCN(CCCc3ccccc3)CC2)c2ccccn2)cc1 (stereo not drawn)	-19.5	6.2	7.5
CCOC(=O)CCCCCC(=O)Nc1ccc2c(c1)C(=O)N([C@@H](C)CO)C[C@@H](C)[C@H](CN(C)S(=O)(=O)c1cccs1)OCCCC[C@H](C)O2	-0.4	-11.6	-38.3
CCN(c1ccccc1)S(=O)(=O)c1cc(C(=O)NCc2ccco2)ccc1C	-12.2	3.8	-6.4
CCOC(=O)C1CCCN(C(=O)c2cc(C)n(C(C)(C)C)n2)CC1 (stereo not drawn)	2.4	3.0	1.5
Cc1cccc(OC(C)C(=O)Nc2ccc3c(c2)OCCO3)c1 (stereo not drawn)	-13.3	-9.3	-3.4
Cc1c(NC(=O)c2cccc(NC(=O)Cc3c(F)cccc3Cl)c2)c(=O)n(-c2ccccc2)n1C	-10.8	6.4	-2.6
O=C(Cc1c(Cl)cccc1Cl)N1CCN(S(=O)(=O)c2cccs2)CC1	-3.3	-9.9	3.4
O=C(NCCCCc1ccccc1)c1cccc(NC(=O)c2ccccc2)c1	-8.0	-1.7	-2.0
COc1cc2c(C#CCO)c(-c3ccc(C#N)cc3)oc(=O)c2cc1OC	-3.0	1.2	5.2
CC(C)[C@H](NC(=O)c1ccc(Br)cc1)C(=O)NC1CCCCC1	-16.4	-12.7	0.1
CCC(C)C1/C=C\CC(NC(=O)OCC2c3ccccc3-c3ccccc32)CC(=O)N1Cc1ccccc1 (stereo not drawn)	-13.7	-9.1	-14.6
O=C(COC(=O)c1ccco1)Nc1ccc(N2CCOCC2)cc1	-9.9	0.5	2.1
COC(=O)[C@H](C)N(Cc1ccc(Cl)c(Cl)c1)S(=O)(=O)CCN1CCN(c2ccccc2)CC1	-19.3	5.0	-18.0
CC1CCN(C(=O)COC(=O)C23CC4CC(CC(O)(C4)C2)C3)CC1	2.8	-1.4	-3.9
O=C(O)Cn1c2ccccc2c2nc3ccccc3nc21	-17.1	2.3	-0.8
COc1ccc([C@H]2N[C@]3(CCCN(Cc4ccc(C(F)(F)F)cc4)C3=O)[C@H]3C(=O)N(C)C(=O)[C@@H]23)cc1	-9.2	2.0	-0.4
CC(C)c1ccc(NC(=O)COC(=O)c2cc(=O)[nH]c3ccccc23)cc1	-3.1	0.5	2.1
CCCCCC(=O)N1C[C@H](O)[C@@H](n2cc(-c3ccc(F)cc3)nn2)C[C@@H]1c1ccc(OC)cc1	-6.1	-0.5	-4.0
Cc1cc(Cl)ccc1OCC(=O)NNC(=O)CCOc1ccccc1	-14.1	0.3	2.0
COc1ccc(S(=O)(=O)N2CCC(C(=O)NCC(=O)Nc3c(C)cccc3C)CC2)cc1OC	14.2	-0.2	2.3
CCN(CC(=O)NC1CCS(=O)(=O)C1)C(C)C(=O)Nc1ccc(F)cc1 (stereo not drawn)	-18.6	3.1	3.6
CC1=C(C(=O)N(C(C)C)C(C)C)CC(CC(=O)NCc2ccco2)C(=O)N1Cc1ccc(F)cc1 (stereo not drawn)	2.4	2.1	2.6
Cc1cc(C)c(NC(=O)CN(C)C(=O)C2CC(=O)N(c3cccc4ccccc34)C2)c(C)c1 (stereo not drawn)	-12.9	3.1	0.2
Cc1cc(C)c(C(=O)COC(=O)c2nn(C)c(=O)c3ccccc23)cc1C	-17.2	2.1	1.3

(further entries)
SMILES	Yeast UUG start	MT1-MMP act inh	MT1-MMP act inh RFP
COc1ccc(C(=O)OCC(=O)Nc2ccc3c(c2)OCO3)cc1S(=O)(=O)N1CCOCC1	-14.9	5.9	1.8
Cc1cc(C(=O)OCC(=O)N2CCCCCC2)ccc1[N+](=O)[O-]	-0.4	-1.6	2.5
O=C(N1CCOCC1)N1[C@H](COCc2ccccc2)C=CS1(=O)=O	0.8	-0.4	2.3
O=C(Nc1ccccc1OC(=O)c1ccccc1)c1ccccc1	22.4	11.5	-0.5
COCCCNC(=O)C[C@H]1C[C@H](C(=O)N2CCCCC2)[C@@]2(CCc3ccccc3)c3[nH]c4cc(CCC(=O)N(C)C)ccc4c3CCN2C1=O	2.3	-2.1	1.9
O=C(NN=Cc1ccc(F)cc1)C1CC1	-16.7	-0.9	-2.0
Cc1cn([C@H]2C[C@H](O)[C@@H](CCC(=O)NCCN3CCCCC3)O2)c(=O)[nH]c1=O	-19.9	1.7	5.6
CCOC(=O)c1nn(C)c2[nH]c(=O)n(C)c(=O)c12	-4.1	2.5	0.4
Cc1ccc(NC(=O)COc2cccc3ccccc23)c(O)c1	-8.1	2.3	-1.8
CC1CCCCC12NC(=O)N(CC(=O)Nc1nccs1)C2=O (stereo not drawn)	-27.0	-8.2	-0.3
CC(=O)Nc1ccc(S(=O)(=O)NCCC(=O)OC(C)C(=O)NC2(C#N)CCCCC2)cc1 (stereo not drawn)	-30.6	-1.8	4.8
CCOC(=O)c1c(C)[nH]c(C)c1C(=O)COC(=O)/C=C/c1ccc(OC)cc1	-0.7	-8.6	-11.8
CCc1noc(C)c1C(=O)OCC(=O)c1ccc(OC)c(OC)c1	-6.1	0.3	-0.5
Cc1ccc(Cc2c(-c3ccc(C)cc3)nc3c(Cl)cc(C(F)(F)F)cn23)cc1	-9.8	-5.3	0.4
C[C@@H]1CN([C@H](C)CO)C(=O)CCCn2nncc2CO[C@H]1CN(C)Cc1ccc2cccnc2c1	-3.2&-2.7	1.1	2.6
O=C(CNC(=O)c1cc(Cl)cc([N+](=O)[O-])c1)OCC(=O)N1CCCCC1	-2.1	-3.4	7.6
CCCCN(C(=O)CSCC(=O)Nc1ccc(OC)cc1)c1c(N)n(CC(C)C)c(=O)[nH]c1=O	-12.6	-0.3	-1.2
CCOC(=O)C1=C(CC)Nc2ccccc2N/C1=N\S(=O)(=O)c1ccccc1F	-9.0	5.1	-1.7
CC(=O)Nc1ccc(NC(=O)C(C)OC(=O)C2CCN(S(=O)(=O)c3ccccc3C(F)(F)F)CC2)cc1 (stereo not drawn)	-1.5	-0.5	3.4
COCCN(Cc1nc2ccccc2c(=O)[nH]1)C(=O)c1cccc(S(=O)(=O)N2CCCC2)c1	-32.0	-3.2	-0.8
CCOC(=O)C1(C)CCN1C(=O)CSc1ccccc1 (stereo not drawn)	-21.1	2.1	4.1
CCC[C@H]1CN(c2ccc(Br)cc2)C(=O)[C@@H]1CC(=O)NC	-7.2	2.4	10.5
CCC(=O)c1ccc(OCC(=O)N(CC)CC2COc3ccccc3O2)cc1 (stereo not drawn)	0.0	1.1	2.7
CC1NC(=O)c2cc3ccccc3cc2-n2c1nc1ccccc1c2=O (stereo not drawn)	-3.7	-0.8	4.9
Cc1ccc(NC(=O)COC(=O)CCC(=O)c2cccs2)c(Br)c1	-16.1	-5.2	-0.1

Next section.
SMILES	Yeast UUG start	MT1-MMP act inh	MT1-MMP act inh RFP
CCN(CC(=O)NCc1cccs1)C(=O)c1cccc(S(=O)(=O)N(CC)c2ccccc2)c1	12.6	2.8	-1.5
CCc1nc2c(OCCC3CCCCC3)cccn2c1N(C)C(=O)C(C)C	-18.8	-7.5	-9.3
COc1ccc(N2C[C@H](C)[C@@H](CC(=O)Nc3ccccc3)C2=O)cc1	-13.7	1.7	0.3
COc1ccccc1NC(=O)C(C)OC(=O)CCNS(=O)(=O)c1cccc(C(F)(F)F)c1 (stereo not drawn)	-7.2	-1.3	-1.4
Cc1ccc([C@H]2C[C@@H](O)[C@H](n3cc(COC(=O)c4ccccc4)nn3)CN2C(=O)C2CCCCC2)cc1	-1.3	1.8	6.1
COc1ccc(C(CNC(=O)C(C)Oc2ccc(Br)cc2)N2CCCCC2)cc1 (stereo not drawn)	-11.8	-3.2	-1.5
CCc1ccc(C(=O)OCC(=O)N2CCCCCC2)cc1	-2.7	2.6	3.6
Cc1cccc(C)c1NC(=O)CN(C)C(=O)C1=COCCO1	-22.7	-0.4	1.4
O=C(CCCCn1cnc2c(=S)nc[nH]c21)Nc1ccc(C(=O)O)cc1	-3.7	-1.9	-0.4
COc1cc(/C=C/C(=O)OCC(=O)N(CC(C)C)c2c(N)n(Cc3ccccc3)c(=O)[nH]c2=O)ccc1O	-5.1	-4.5	-17.8
COc1cc(OC)c2c(-c3cccc(-c4ccc(CO)cc4)c3)cc(=O)oc2c1	15.4	-2.4	-16.9
CCOC(=O)C1=C(COC(=O)COc2ccccc2C(C)C)NC(=O)NC1C (stereo not drawn)	18.3	4.0	2.6
CCCCCCCCC(c1nc2ccccc2[nH]1)N1CCN=C1c1cc2ccccc2[nH]1 (stereo not drawn)	-6.9	-3.9	-3.3
CCCCCC(=O)N1C[C@@H](n2cc(C3CC3)nn2)[C@H](O)C[C@@H]1c1ccc(Cl)cc1	-12.5	10.6	-2.3
COc1cc(C(=O)OCC(=O)NC2CC2)ccc1OCCC(C)C	-17.4	0.3	-3.7
CCNC(=S)NCC	9.5	1.0	3.4
CCCn1nc(C(=O)Nc2cc(OCC)c(N3CCOCC3)cc2OCC)c2ccccc2c1=O	-12.1	5.2	-10.7
CC(C)C[C@@H](CNCC(=O)[C@H](Cc1c[nH]c2ccccc12)NC(=O)c1[nH]cnc1C(=O)N[C@@H](C)CN)NC(=O)c1nc[nH]c1C(=O)N[C@@H](C)C(=O)O	141.4*	-1.2	3.5
CCC(=O)N1CCCC1(C)C(=O)Nc1ccc2nc(C)ccc2c1 (stereo not drawn)	3.8	0.2	0.2
CS(=O)(=O)c1ccc(Cl)c(NC(=O)COC(=O)C23CC4CC(CC(C4)C2)C3)c1	-7.9	1.4	1.3
CC(Oc1ccc(C#N)cc1)C(=O)NC1CCCC1 (stereo not drawn)	4.8	-3.3	5.1
COc1ccc(NC(=O)CNc2cc(C)ccc2C)cc1S(=O)(=O)N1CCOCC1	-1.4	5.0	0.1
CCC[C@@H](CN1CCC[C@H]1CN1C(N)=NC[C@@H]1Cc1ccccc1)N1C[C@@H]([C@H](C)CC)N(CCCC2CCCC2)C1=N	-17.7	0.0	-19.3
Cc1ccc(/C=N/NC(=O)c2ccc(-n3cnnn3)cc2)cc1	-4.6	3.4	1.3
CCOC(=O)C1=CC[C@@H](c2ccccc2C(F)(F)F)N(S(=O)(=O)c2ccc(C)cc2)[C@H]1c1ccc(C#N)cc1	-17.5	-0.2	-2.9
CCN(CC)C(=O)C1=C(C)N(CCCN2CCCC2=O)C(=O)C(CC(=O)NCc2cccs2)C1 (stereo not drawn)	-9.3	0.1	5.5
O=C1C[C@@H]2C(=O)N(c3ccccc3)C(=O)[C@@H]2[C@@H]2CN(S(=O)(=O)c3ccccc3)[C@@H](c3ccccc3)[C@H]12	0.5	2.7	2.3

Compounds shown so far with fluorine:
SMILES	Yeast UUG start	MT1-MMP act inh	MT1-MMP act inh RFP
Cc1c(NC(=O)c2cccc(NC(=O)Cc3c(F)cccc3Cl)c2)c(=O)n(-c2ccccc2)n1C	-10.8	6.4	-2.6
COc1ccc([C@H]2N[C@]3(CCCN(Cc4ccc(C(F)(F)F)cc4)C3=O)[C@H]3C(=O)N(C)C(=O)[C@@H]23)cc1	-9.2	2.0	-0.4
CCCCCC(=O)N1C[C@H](O)[C@@H](n2cc(-c3ccc(F)cc3)nn2)C[C@@H]1c1ccc(OC)cc1	-6.1	-0.5	-4.0
CCN(CC(=O)NC1CCS(=O)(=O)C1)C(C)C(=O)Nc1ccc(F)cc1 (stereo not drawn)	-18.6	3.1	3.6
CC1=C(C(=O)N(C(C)C)C(C)C)CC(CC(=O)NCc2ccco2)C(=O)N1Cc1ccc(F)cc1 (stereo not drawn)	2.4	2.1	2.6
O=C(NN=Cc1ccc(F)cc1)C1CC1	-16.7	-0.9	-2.0
Cc1ccc(Cc2c(-c3ccc(C)cc3)nc3c(Cl)cc(C(F)(F)F)cn23)cc1	-9.8	-5.3	0.4
CCOC(=O)C1=C(CC)Nc2ccccc2N/C1=N\S(=O)(=O)c1ccccc1F	-9.0	5.1	-1.7
CC(=O)Nc1ccc(NC(=O)C(C)OC(=O)C2CCN(S(=O)(=O)c3ccccc3C(F)(F)F)CC2)cc1 (stereo not drawn)	-1.5	-0.5	3.4
COc1ccccc1NC(=O)C(C)OC(=O)CCNS(=O)(=O)c1cccc(C(F)(F)F)c1 (stereo not drawn)	-7.2	-1.3	-1.4
CCOC(=O)C1=CC[C@@H](c2ccccc2C(F)(F)F)N(S(=O)(=O)c2ccc(C)cc2)[C@H]1c1ccc(C#N)cc1	-17.5	-0.2	-2.9

2 entries picked at random from those above, as already listed:
SMILES	Yeast UUG start	MT1-MMP act inh	MT1-MMP act inh RFP
O=C(CCCCn1cnc2c(=S)nc[nH]c21)Nc1ccc(C(=O)O)cc1	-3.7	-1.9	-0.4
CCCCCCCCC(c1nc2ccccc2[nH]1)N1CCN=C1c1cc2ccccc2[nH]1 (stereo not drawn)	-6.9	-3.9	-3.3

An excerpt; count on the stated rates, not on these rows.
